# Screens from PubChem.
# DUX4 inh: inhibitors of DUX4-driven ZSCAN4 reporter expression, primary screen, 293T cells, Gaussia and Italica luciferase; 293T-iDUX4 ZSCAN4-Gaussia luciferase reporter, 24 h; active compounds read low; activity change, negative = inhibition, % (concentration not given with the values); actives 0.8% (n = 37,000); AID 1224904, 2016;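 active = -10% or lower and over 25 points stronger than a control reporter; inconclusive = -10% or lower with a smaller gap; inactive = above -10%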;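 note: 0% = median of neutral control wells and -100% = median of positive control wells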
# DUX4 inh difference: also measured in DUX4 inh; calls as there; Gaussia minus Italica difference, %; measured here: selective DUX4 reporter inhibition;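 worked out from the two reporters; negative = selective loss of the DUX4 reporter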
# DUX4 inh control: recorded beside DUX4 inh, whose call it bears; activity change, negative = inhibition, %; measured here: Italica tet-on control reporter;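 0 = neutral control and -100 = positive control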
# * hit, by the source's call; u = inconclusive; x = not tested or not shown; & = joins results of further samples. The list is partial. The share of hits here may be higher or lower than overall.
SMILES,DUX4 inh,DUX4 inh difference,DUX4 inh control
O=C1CN(S(=O)(=O)Cc2ccccc2)C[C@H]2[C@@H](c3ccc(C#CCC4CCCC4)cc3)[C@@H](CO)N12,-4,-6,2.7
CCNC(=O)c1cc2c(c(-c3cccc(-c4ccncc4)c3)n1)[C@@H](CCO)N(S(=O)(=O)CC)C2,-3,15,-18
CN(C)C(=O)C[C@H]1CC[C@@H]2[C@H](COC[C@H](O)CN2Cc2ccc(C(F)(F)F)cc2)O1,0,1,-0.3
O=C(C[C@H]1CC[C@H]2[C@@H](COC[C@@H](O)CN2Cc2cc(F)ccc2F)O1)N[C@@H]1CCN(Cc2ccccc2)C1,-3,-5,1.9
CCNC(=O)[C@@H]1[C@@H](CO)[C@@H]2Cn3c(ccc(-c4ccccc4F)c3=O)[C@@H]2N1CC1CC1,u,x,x
CO[C@H]1CN(C)C(=O)c2ccc(NC(=O)c3cccc(F)c3)cc2OC[C@@H](C)N(C(C)=O)C[C@@H]1C,2,0,2.1
COc1ccc(NC(=O)N(C)C[C@@H]2OCc3cn(nn3)CCCC(=O)N([C@@H](C)CO)C[C@H]2C)cc1,4,3,0.9
CCS(=O)(=O)N1[C@H](C#N)[C@@H](c2ccc(-c3cccc(F)c3)cc2)[C@@H]1CO,-1,-1,0.1
CC=Cc1ccc2n(c1=O)C[C@@H]1[C@@H](CO)[C@H](C(=O)N3CCCCC3)N(C(=O)CC)[C@H]21 (mixture of isomers),0,-3,2.9
O=C(C[C@@H]1CC[C@@H]2[C@H](COC[C@@H](O)CN2C(=O)c2cccnc2)O1)Nc1ccc(-c2ccccc2)cc1,16,17,-0.7
C[C@H](CO)N1C[C@H](C)[C@H](CN(C)Cc2ccc3c(c2)OCO3)OCCCC[C@H](C)Oc2ccc(NS(=O)(=O)c3cn(C)cn3)cc2C1=O,3,4,-1.2
COc1ccc2c3c([nH]c2c1)[C@@H](CO)N(C(=O)CN(C)C)CC31CCN(Cc2ccccc2)CC1,1,-20,21
COCC(=O)Nc1ccc2c(c1)C(=O)N(C)[C@H]1CC[C@H](CC(=O)Nc3cn(C)nc3C)O[C@H]1CO2,3,3,-0.3
CC(=O)NC[C@@H]1[C@@H](c2ccc(C3=CCCC3)cc2)[C@@H](CO)N1C(=O)NC(C)C,-2,-5,2.9
C[C@@H](O)C#Cc1ccc([C@@H]2[C@@H](CO)N3CCCCN(CC4CC4)C[C@H]23)cc1,-2,-2,-0.5
CCCNC(=O)N1[C@H](C#N)[C@H](c2ccc(C#Cc3ccc(F)cc3)cc2)[C@H]1CO,4,3,0.5
COc1ccc(NC(=O)Nc2ccc3c(c2)[C@@H]2C[C@@H](CC(=O)N[C@@H](C)c4ccccc4)O[C@@H](CO)[C@@H]2O3)cc1,u,x,x
CNC(=O)C[C@H]1CC[C@@H]2[C@H](COc3ccc(NC(=O)Nc4ccccc4F)cc3C(=O)N2C)O1,-3,-3,0.6
CO[C@H]1CN(C)C(=O)c2ccc(NS(=O)(=O)CC(F)(F)F)cc2OC[C@H](C)N(C(=O)NC(C)C)C[C@@H]1C,-4,-4,0.0
CCCNC(=O)C[C@H]1C[C@@H]2c3cc(NC(=O)C4CCOCC4)ccc3O[C@@H]2[C@@H](CO)O1,-1,-4,2.5
COc1ccccc1C(=O)N1C[C@@H]2[C@H](c3ccccc31)[C@H](CO)N2C(=O)Nc1ccccc1,3,2,1.0
C[C@H](O)C#Cc1ccc([C@H]2[C@@H](CO)N3CCCCN(S(=O)(=O)Cc4ccccc4)C[C@H]23)cc1,20,4,16
C/C=C/c1ccc([C@@H]2[C@@H](CN(C)C(=O)CC)N(C(=O)NCCC)[C@H]2CO)cc1,-4,0,-3.7
COc1cccc(-c2ccc3c(c2)[C@H]2[C@H](CCN2C(=O)c2cnccn2)[C@H](CO)N3)c1,-7,-4,-3.1
O=C(c1ccc2c(c1)OCO2)N1CC(=O)N2[C@@H](CO)[C@@H](c3ccc(C#CCC4CCCC4)cc3)[C@@H]2C1,u,x,x

# Not a retest: 5 of the compounds above.
SMILES,DUX4 inh,DUX4 inh difference,DUX4 inh control
COc1ccccc1C(=O)N1C[C@@H]2[C@H](c3ccccc31)[C@H](CO)N2C(=O)Nc1ccccc1,3,2,1.0
C[C@H](O)C#Cc1ccc([C@H]2[C@@H](CO)N3CCCCN(S(=O)(=O)Cc4ccccc4)C[C@H]23)cc1,20,4,16
C/C=C/c1ccc([C@@H]2[C@@H](CN(C)C(=O)CC)N(C(=O)NCCC)[C@H]2CO)cc1,-4,0,-3.7
COc1cccc(-c2ccc3c(c2)[C@H]2[C@H](CCN2C(=O)c2cnccn2)[C@H](CO)N3)c1,-7,-4,-3.1
O=C(c1ccc2c(c1)OCO2)N1CC(=O)N2[C@@H](CO)[C@@H](c3ccc(C#CCC4CCCC4)cc3)[C@@H]2C1,u,x,x

# (more compounds)
SMILES,DUX4 inh,DUX4 inh difference,DUX4 inh control
COc1ccc(-c2ccc3n(c2=O)C[C@H]2[C@H](CO)[C@@H](C(=O)N4CCN(C)CC4)N[C@@H]32)cc1,-4,-5,0.5
CCCC#Cc1ccc([C@@H]2[C@@H](C#N)N(C(=O)C3CCC3)[C@@H]2CO)cc1,-3,-3,-0.3
CO[C@@H](CN(C)S(=O)(=O)c1ccc(C)cc1)[C@@H](C)CN(C(=O)Nc1ccccc1F)[C@@H](C)CO,-4,-4,0.5
CN(C)CC#Cc1ccc([C@@H]2[C@@H](CO)N3C(=O)CN(C(=O)c4cccc(F)c4)C[C@H]23)cc1,15,9,5.1
CC=Cc1ccc2n(c1=O)C[C@H]1[C@H](CO)[C@@H](C(=O)N(C)C)N(CC3CC3)[C@@H]21 (mixture of isomers),-1,-7,5.9
COc1ccc(C#Cc2ccc3c(c2)[C@H]2[C@H](CCN2C(=O)c2ccccc2F)[C@H](CO)N3C)cc1,u,x,x
CCCNC(=O)Nc1ccc2c(c1)C(=O)N(C)C[C@H](OC)[C@H](C)CN(C)[C@@H](C)CO2,-3,-4,1.4
COc1ccc(S(=O)(=O)Nc2ccc3c(c2)C(=O)N([C@@H](C)CO)C[C@H](C)[C@H](CN(C)C(=O)Nc2c(C)noc2C)OCCCC[C@H](C)O3)cc1,-1,-2,0.7
COc1ccccc1-c1ccc2c(c1)O[C@H](CN(C)CC1CCOCC1)[C@@H](C)CN([C@@H](C)CO)S2(=O)=O,1,1,-0.5
C[C@@H]1CN([C@@H](C)CO)S(=O)(=O)c2ccc(-c3cncnc3)cc2O[C@H]1CN(C)C(=O)c1cccc(F)c1,-1,0,-1.0
CCS(=O)(=O)N1CCC2(CC1)CN(S(=O)(=O)c1ccccc1)[C@@H](CO)c1c2c2ccc(OC)cc2n1C,u,x,x
COCC(=O)N[C@H]1C=C[C@H](CC(=O)N2CCCCC2)O[C@H]1CO,3,3,0.1
COCC(=O)Nc1ccc2c(c1)[C@H]1C[C@H](CC(=O)NCCc3ccccc3)O[C@@H](CO)[C@H]1O2,-4,-7,2.9
COc1ccccc1-c1ccc(C2[C@H]3CNC[C@@H]2N3S(=O)(=O)c2ccc(F)cc2)cc1 (some centres not stated),7&14,6&3,1.0&11
CCCNC(=O)C[C@H]1CC[C@@H]2[C@@H](COc3ccc(NC(=O)Nc4c(C)noc4C)cc3C(=O)N2C)O1,1,-4,4.1
N#C[C@H]1[C@@H](c2ccc(C3=CCCCC3)cc2)[C@H](CO)N1S(=O)(=O)c1cccc(F)c1,2,-3,5.3
C/C=C/c1ccc([C@@H]2[C@H](CO)N(CC3CCCC3)C23CN(C(=O)CC2CC2)C3)cc1,u,x,x
C[C@H](CO)N1C[C@H](C)[C@@H](CN(C)Cc2ccc(C(=O)O)cc2)OCc2cn(nn2)CCCC1=O,-3,1,-4.0
O=C(C[C@H]1CC[C@H]2[C@@H](COC[C@@H](O)CN2C(=O)c2ccc(F)cc2)O1)NCc1cccc(F)c1,0,-11,11
Cc1ccccc1-c1ccc([C@H]2[C@H](CO)N3C(=O)CN(C(=O)c4cccnc4)C[C@@H]23)cc1,7,-5,12
CC(=O)N(C)C[C@H]1[C@@H](c2ccc(-c3cccnc3)cc2)[C@@H](CO)N1C(=O)C1CC1,-2,1,-2.6
Cc1noc(C)c1NC(=O)N(C)C[C@H]1OCc2cn(nn2)CCCC(=O)N([C@H](C)CO)C[C@H]1C,5,3,2.3
O=C(C[C@H]1CC[C@@H]2NC[C@@H](O)COC[C@H]2O1)N1CCc2ccccc2C1,4,6,-2.0
CCCNC(=O)C[C@H]1CC[C@@H]2[C@H](COC[C@H](O)CN2C(=O)Nc2ccc(Cl)c(Cl)c2)O1,-1,1,-1.3
O=C(c1cccc(F)c1)N1CC(=O)N2[C@@H](CO)[C@@H](c3ccc(C#Cc4ccc(F)cc4)cc3)[C@@H]2C1,u,x,x

# Sorted by SMILES length (smallest number first): 6 of the compounds above.
SMILES,DUX4 inh,DUX4 inh difference,DUX4 inh control
COc1ccccc1-c1ccc(C2[C@H]3CNC[C@@H]2N3S(=O)(=O)c2ccc(F)cc2)cc1 (some centres not stated),7&14,6&3,1.0&11
Cc1noc(C)c1NC(=O)N(C)C[C@H]1OCc2cn(nn2)CCCC(=O)N([C@H](C)CO)C[C@H]1C,5,3,2.3
COCC(=O)Nc1ccc2c(c1)[C@H]1C[C@H](CC(=O)NCCc3ccccc3)O[C@@H](CO)[C@H]1O2,-4,-7,2.9
CCCNC(=O)C[C@H]1CC[C@@H]2[C@@H](COc3ccc(NC(=O)Nc4c(C)noc4C)cc3C(=O)N2C)O1,1,-4,4.1
CO[C@@H](CN(C)S(=O)(=O)c1ccc(C)cc1)[C@@H](C)CN(C(=O)Nc1ccccc1F)[C@@H](C)CO,-4,-4,0.5
COc1ccc(-c2ccc3n(c2=O)C[C@H]2[C@H](CO)[C@@H](C(=O)N4CCN(C)CC4)N[C@@H]32)cc1,-4,-5,0.5

# (further entries)
SMILES,DUX4 inh,DUX4 inh difference,DUX4 inh control
O=C(c1cnccn1)N1CC(=O)N2[C@H](CO)[C@@H](c3ccc(C#CCC4CCCC4)cc3)[C@@H]2C1,u,x,x
CN(C)C(=O)C[C@H]1C=C[C@H](NS(=O)(=O)c2ccccc2)[C@@H](CO)O1,3,1,2.4
O=C(NC1CCCCC1)N1CC2(C1)[C@H](c1ccccc1)[C@H](CO)N2CC1CC1,-1,2,-2.4
C[C@@H]1CN([C@H](C)CO)C(=O)c2cc(NC(=O)Nc3cccc4ccccc34)ccc2O[C@@H](C)CCCCO[C@@H]1CN(C)Cc1ccc(C(F)(F)F)cc1,1,1,-0.6
COc1ccc(C[C@H]2CCc3cnnn3COC[C@H](CC(C)C)NC2=O)cc1,4,1,3.3
COc1cccc(S(=O)(=O)Nc2ccc3c(c2)C(=O)N(C)C[C@H](OC)[C@H](C)CN(C(=O)Cc2cccnc2)[C@@H](C)CO3)c1,-1,0,-1.0
CN1CCN(C(=O)C[C@H]2CC[C@@H]3[C@H](COC[C@H](O)CN3C(=O)C3CCOCC3)O2)CC1,14,9,5.5
C[C@@H]1CN([C@H](C)CO)C(=O)Cc2cc(NC(=O)CCC(F)(F)F)ccc2O[C@@H]1CN(C)C(=O)Nc1cccc2ccccc12,2,4,-2.8
Cc1cccc(-c2ccc([C@@H]3[C@H]4CN(C(=O)c5cnccn5)CC(=O)N4[C@H]3CO)cc2)c1,1,4,-3.2
C[C@@H]1CN([C@@H](C)CO)C(=O)Cc2cc(NS(C)(=O)=O)ccc2O[C@H]1CN(C)Cc1ccc(C(F)(F)F)cc1,0,-10,9.7
CCN1[C@H](C(=O)N(C)C)[C@@H](CO)[C@@H]2Cn3c(ccc(/C=C/c4ccccc4)c3=O)[C@@H]21,-2,0,-2.2
Cc1ccc(S(=O)(=O)Nc2ccc3c(c2)CC(=O)N([C@H](C)CO)C[C@H](C)[C@@H](CN(C)S(=O)(=O)c2ccccc2)O3)cc1,0,1,-0.9
O=C(C[C@H]1CC[C@@H](NC(=O)C2CCOCC2)[C@H](CO)O1)NCC1CCCCC1,2,3,-0.9
Cc1ccc(S(=O)(=O)N2C[C@@H]3N[C@H](C2)C3c2ccc(-c3ccc(C(=O)N(C)C)cc3)cc2)cc1 (some centres not stated),u,x,x
O=C(CN1CCOCC1)N1CCCCN2[C@H](CO)[C@@H](c3ccc(C#Cc4ccccc4F)cc3)[C@@H]2C1,-36*,-29*,-6.9*
CC(C)OC(=O)N(C)C[C@H]1OCc2cn(nn2)CCCC(=O)N([C@H](C)CO)C[C@@H]1C,0,0,0.8
Cc1noc(C)c1NC(=O)Nc1cccc2c1O[C@@H](CN(C)C(=O)Nc1ccc3c(c1)OCO3)[C@@H](C)CN([C@@H](C)CO)C2=O,4,1,2.4
CCC(=O)N1C[C@H](C)[C@H](OC)CN(C)C(=O)c2ccc(NC(=O)CC(F)(F)F)cc2OC[C@H]1C,9,4,4.8
COCC#Cc1ccc([C@H]2[C@@H](CO)N3CCCCN(S(=O)(=O)c4ccccc4F)C[C@@H]23)cc1,u,x,x
COc1ccc2c3c(n(C)c2c1)[C@H](CO)N(C(=O)Nc1cccc(F)c1)CC31CN(Cc2nccs2)C1,u,x,x
COc1cccc(S(=O)(=O)N(C)C[C@@H]2OCc3ccccc3-c3ccccc3C(=O)N([C@H](C)CO)C[C@@H]2C)c1,-7,-4,-3.6
CCN1[C@H](C(=O)Nc2nccs2)[C@@H](CO)[C@@H]2Cn3c(ccc(/C=C/c4ccccc4)c3=O)[C@@H]21,u,x,x
COCC(=O)N1CC2(CN(Cc3ccccc3Cl)C2)c2c([nH]c3cc(OC)ccc23)[C@H]1CO,u,x,x
O=C(C[C@H]1CC[C@@H]2[C@H](COC[C@H](O)CN2Cc2nccs2)O1)NCc1ccccc1Cl,1,2,-1.6
